FGF22 binding: binders of human FGF22 protein, primary screen, FGF22 synaptogenesis inhibitor project, biophysical, thermal shift, single point. hit rate 1.5% among 340,000. calls only at 9.99 µM. AID 651658, 2012. Fibroblast growth factor 22 (Homo sapiens), Q9HCT0. recombinant FGF22 thermal shift, SYPRO orange fluorescence; percent of sucrose octasulfate shift, DMSO zero;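 active means melting point raised past a set limit in the mean and every replicate; inconclusive means no clear call; three in four hits are not shown here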
Ecoli rRNA inh: reduced GFP signal of wild-type E. coli, primary screen, bacterial rRNA inhibitor project, GFP/RFP fluorescence, OD600, single point; E. coli WT GFP vs humanized-ribosome RFP mutants, 24 h; stronger effect = lower value; DMSO median 0, no signal -100; GFP signal change (wild-type ribosome), % (test concentration not listed); hit rate 1.6% among 350,000; AID 720706, 2013;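 active means significant combined selectivity score with lowered wild-type GFP, culture density cut under 30%, mutant RFP and density less affected; inactive means any of these conditions unmet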; further: one replicate is shown; some compounds called inactive have numbers as strong as hits
Vif TR-FRET: inhibitors of Vif binding to APOBEC3G peptide, primary screen, biochemical, TR-FRET, GST-Vif 1-94, biotin-A3G peptide, dose response retest (AID 1117319); TR-FRET GST-Vif / biotin-A3G peptide binding; higher % means a stronger effect; test concentration not given here; strong numbers were not always called active; Virion infectivity factor (Human immunodeficiency virus type 1 group M subtype B (isolate …; hit rate 0.57% among 260,000; inhibition, %; hits with a dose series show IC50 in µM;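 active means above the screen mean plus three standard deviations and confirmed in dose response; inconclusive means results disagree or hit not tested in dose response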;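 further: Vif residues 1-94 fused to GST binding biotinylated APOBEC3G peptide 110-148; 0% = full assay without inhibitor and 100% = GST in place of GST-Vif; retest series ran down from 100 µM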
ALR H2O2 inh: inhibitors of human ALR sulfhydryl oxidase, primary screen, biochemical, H2O2 detection, HRP-luminol luminescence, single point. FAD-linked sulfhydryl oxidase ALR (Homo sapiens), P55789. purified ALR, DTT oxidation. inhibition, % (test concentration not listed). hit rate 3.8% among 290,000. AID 485317, 2010;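 active means mean and each replicate at 75% or more; inconclusive means only one of the two met; inactive means neither met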;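 further: stock transfer was 7.5 nL into about 7.5 µL; 0% = neutral wells and 100% = wells with inactivated enzyme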
AF4-AF9 inh: inhibitors of AF4 peptide binding to AF9, primary screen, biochemical, AlphaScreen, biotin-AF4 peptide, FLAG-AF9, single point | inhibition, % at 10 µM | hit rate 0.47% among 350,000 | AID 651704, 2012;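 active means every replicate reaching a set inhibition limit, whatever the replicate mean, cut at about 25% in these data; inconclusive means mean inhibition reaches that limit but some replicates miss it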;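 further: 0% = plate neutral control median and 100% = total signal loss; the record names both 10 and 1 µM as test concentration; the first replicate is given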
Target sequence (P42568 whole entry, looked up): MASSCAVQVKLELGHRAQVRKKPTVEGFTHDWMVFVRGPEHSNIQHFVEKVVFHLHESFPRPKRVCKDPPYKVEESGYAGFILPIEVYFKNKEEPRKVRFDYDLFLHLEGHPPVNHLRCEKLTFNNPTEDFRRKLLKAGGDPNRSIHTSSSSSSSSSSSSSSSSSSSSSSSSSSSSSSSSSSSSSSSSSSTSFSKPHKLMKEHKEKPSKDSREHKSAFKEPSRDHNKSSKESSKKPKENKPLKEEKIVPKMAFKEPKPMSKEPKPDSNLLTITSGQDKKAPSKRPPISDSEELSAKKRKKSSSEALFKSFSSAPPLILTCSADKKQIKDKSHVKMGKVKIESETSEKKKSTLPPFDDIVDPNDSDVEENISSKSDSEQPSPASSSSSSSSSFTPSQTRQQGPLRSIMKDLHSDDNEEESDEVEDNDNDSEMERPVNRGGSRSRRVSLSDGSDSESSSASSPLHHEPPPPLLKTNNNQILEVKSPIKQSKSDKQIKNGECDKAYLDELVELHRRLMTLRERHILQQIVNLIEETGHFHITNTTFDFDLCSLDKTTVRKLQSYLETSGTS
E coli growth: E. coli growth inhibition, primary screen, OD600; Escherichia coli growth, 23 h; stronger effect = lower value; OD600 absorbance (no concentration beside the values); hit rate 0.21% among 330,000; AID 1053175, 2014;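 active means OD600 absorbance below the run mean of sample wells minus 3.6 SD, in any replicate, cut at about 0.56 in these data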;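 further: stock transfer was 300 nL into about 60 µL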
HNF4A DNA FP: change in binding of human HNF4A to DNA, primary screen, biochemical, fluorescence polarization, FITC-DNA; activity change, % at 10 µM; AID 1224865, 2016; hit rate 0.3% among 360,000; Hepatocyte nuclear factor 4-alpha (Homo sapiens), P41235; 1 h; in the data active means activity change above about 30%, passing the limit was not always enough;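 further: controls were the assay level and a saturating level of protein; the project sought stronger binding though the title names inhibitors; some compounds called inactive have numbers as strong as hits; positive values seem to mean higher polarization but the record does not say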
Target sequence (P41235 whole entry, looked up): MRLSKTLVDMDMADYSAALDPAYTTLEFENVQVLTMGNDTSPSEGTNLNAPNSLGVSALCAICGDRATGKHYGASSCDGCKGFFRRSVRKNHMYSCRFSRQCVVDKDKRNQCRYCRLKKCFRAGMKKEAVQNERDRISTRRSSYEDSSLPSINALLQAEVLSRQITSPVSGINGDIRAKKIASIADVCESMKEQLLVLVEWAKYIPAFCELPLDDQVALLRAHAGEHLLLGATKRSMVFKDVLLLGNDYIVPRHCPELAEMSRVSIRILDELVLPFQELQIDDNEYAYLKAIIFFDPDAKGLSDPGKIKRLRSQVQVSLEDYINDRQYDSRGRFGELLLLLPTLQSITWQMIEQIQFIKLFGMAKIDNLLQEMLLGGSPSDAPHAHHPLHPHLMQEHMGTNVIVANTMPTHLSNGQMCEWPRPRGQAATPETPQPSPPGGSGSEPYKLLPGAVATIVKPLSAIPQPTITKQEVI
Ecoli rRNA inh OD600: further read-out of Ecoli rRNA inh, marked with its call; OD600 change, %; measured here: OD600 growth;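 optical density of the mix in the first replicate; 0 = DMSO median and -100 = no signal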
Ecoli rRNA inh RFP: recorded beside Ecoli rRNA inh, whose call it bears; RFP signal change, %; measured here: RFP humanized mutant strains;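 first replicate; 0 = DMSO median and -100 = no signal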
* = called active by the depositor; i = inactive; u = inconclusive; x = not tested or not shown; & = joins results of further samples.

Screens in order – HNF4A DNA FP | ALR H2O2 inh | Ecoli rRNA inh OD600 | Vif TR-FRET | Ecoli rRNA inh RFP | E coli growth | FGF22 binding | AF4-AF9 inh | Ecoli rRNA inh
> CC(C)C(=O)N1CCC(CN=CC2=C(O)CC(C)(C)CC2=O)CC1
→ -0.2 | -3.2 | x | 11.6% | x | 0.679 | x | x | x
> C[C@@H]1CN([C@H](C)CO)C(=O)c2cc(NC(=O)Cn3cnnn3)ccc2O[C@H]1CN(C)Cc1ccc(Cl)c(Cl)c1
→ x | x | -12.1 | x | 2.6 | x | i | 2.3 | -4.8
> Clc1cc(Cl)c2nc(N3CCOCC3)sc2c1
→ 2.8 | -6.2 | x | 4.2% | x | 0.692 | x | x | x
> COc1ccc(S(=O)(=O)N(C)C[C@H]2Oc3ccc(NC(=O)C4CC4)cc3C(=O)N([C@@H](C)CO)C[C@H]2C)cc1
→ x | x | 3.5 | x | -1.2 | x | i | -3.9 | 1.9
> O=C(COC(=O)/C=C/C(=O)N1CCN(c2ccccc2)CC1)NC(c1ccccc1)c1ccccc1
→ 8.6 | 34.9 | -4.1 | 10.7% | 16.9 | 0.638 | i | 8.2 | -9.2
> C[C@H]1CCCCO[C@H](CN(C)Cc2ccc(Cl)c(Cl)c2)[C@@H](C)CN([C@@H](C)CO)C(=O)c2cc(NC(=O)Nc3ccc(C(F)(F)F)cc3)ccc2O1
→ x | x | 0.6 | x | 1.1 | x | i | -1.6 | 3.4
> C=CCNc1ncnc2c1ncn2[C@H]1CN(Cc2cccc3ccccc23)C[C@@H](CO)O1
→ 1.0 | x | -35.4 | x | 0.5 | x | i | -0.1 | -11.8
> O=c1/c(=C\c2cc([N+](=O)[O-])cc([N+](=O)[O-])c2O)sc2nc3ccccc3n12
→ 40.2* | -20.9 | x | u | x | x | x | x | x
> N/C(=N\OS(=O)(=O)c1cc(Cl)ccc1Cl)c1ccncc1
→ 4.4 | -9.3 | x | 0.3% | x | 0.732 | x | x | x
> Cc1cc(=O)n2nc(N3CCC(C(=O)N4CCN(c5ccccc5)CC4)CC3)sc2n1
→ 0.8 | x | -3.0 | x | 0.3 | 0.699 | i | 4.9 | 0.8
> C=CCc1cccc(/C=N/NC(=O)c2ccccc2Br)c1O
→ -4.8 | x | -51.0 | -6.0% | -14.6 | x | i | 0.7 | -37.0
> C[C@H]1CCCCO[C@@H](CN(C)Cc2ccc(C(F)(F)F)cc2)[C@@H](C)CN([C@@H](C)CO)C(=O)c2cc(NC(=O)NC3CCCCC3)ccc2O1
→ x | x | -3.1 | x | 1.6 | x | i | -3.2 | -1.3
> COc1cc(OC)cc(C2C(C#N)=C(N)Oc3n[nH]c(-c4cccnc4)c32)c1 (configuration not stated)
→ -1.2 | x | 9.8 | 29.9% | -1.2 | 0.649 | i | 9.2 | 10.6
> Cc1cccc(/C=N\NC(=O)c2ccc(Cl)cc2)c1O
→ -3.8 | 1.3 | 12.4 | 2.9% | 2.5 | x | i | -2.1 | -1.5
> C[C@H](CO)N1C[C@H](C)[C@@H](CN(C)Cc2cccc(C(=O)O)c2)Oc2cc(Br)ccc2S1(=O)=O
→ -0.1 | x | -11.9&-10.8 | -0.6% | -9.4&-5.7 | x | i | 2.3&1.0 | -2.3&-1.8
> COc1ccccc1CNC(=O)C[C@@H]1C[C@@H]2c3cc(NC(=O)Cc4ccncc4)ccc3O[C@@H]2[C@H](CO)O1
→ x | x | -6.7 | x | -1.1 | x | i | 6.8 | -1.0
> O/N=C/c1ccc(OCc2ccccc2F)c(Cl)c1
→ 2.0 | -7.4 | x | -7.9% | x | x | x | x | x
> COc1ccc(CN(C)C[C@H]2OCCCC[C@H](C)Oc3ccc(NC(=O)C4CCCCC4)cc3C(=O)N([C@@H](C)CO)C[C@H]2C)cc1
→ x | x | -9.6 | x | 1.5 | x | i | 1.4 | 1.2
> CCCC(=O)Nc1ccc2c(c1)OC[C@@H](C)N(C(=O)CC1CC1)C[C@H](C)[C@@H](OC)CN(C)C2=O
→ x | x | 0.1 | x | -2.2 | x | i | -1.0 | 1.0
> COc1ccccc1N1CCN(C(=O)Nc2cccc(C)c2)CC1
→ 2.5 | -12.7 | x | 8.3% | x | 0.773 | x | x | x
> COc1ccccc1CNC(=O)C[C@H]1CC[C@@H]2[C@H](COc3ccc(NS(=O)(=O)c4ccc(C)cc4)cc3C(=O)N2C)O1
→ x | x | -6.4 | x | 1.0 | x | i | -16.0 | -3.4
> Cc1noc(C)c1S(=O)(=O)N(C)C[C@@H]1Oc2ccc(NC(=O)Nc3ccc(F)cc3)cc2CC(=O)N([C@@H](C)CO)C[C@@H]1C
→ x | x | -5.9 | x | 0.7 | x | i | -5.7 | -2.2
> COc1ccccc1C#Cc1cnc2c(c1)C(=O)N([C@H](C)CO)C[C@H](C)[C@H](CN(C)S(=O)(=O)c1cn(C)cn1)O2
→ x | x | 4.7 | x | -0.7 | x | i | -1.4 | 0.1
> CCCCn1c(N)c(N(CCOC)C(=O)C2CC(=O)N(c3cccc(SC)c3)C2)c(=O)[nH]c1=O (configuration not stated)
→ 0.3 | 3.7 | 5.7 | -3.9% | 3.3 | 0.678 | i | 2.7 | 4.7
> CCn1cc(C(=O)OC)c(=O)c2cc(S(=O)(=O)N(C)C3CCCCC3)ccc21
→ -4.3 | -11.6 | -7.0 | -1.8% | -5.5 | 0.681 | i | -0.4 | -7.0
> COc1ccc(N2CCN(S(=O)(=O)CCNC(=O)C3CCCCC3)CC2)cc1
→ 0.5 | 2.1 | 4.5 | 1.3% | -2.8 | 0.655 | i | 0.7 | 2.2
> CCc1ccc(S(=O)(=O)Nc2cc3c(cc2C)n(C)c(=O)n3C)cc1
→ 7.1 | -3.3 | -24.1 | x | -0.9 | 0.731 | i | -3.5 | -7.0
> O=C(C1CC1)N1C[C@@H]2[C@H](c3ccccc31)[C@@H](CO)N2C(=O)c1ccccn1
→ x | x | 10.6 | x | 0.4 | x | i | -13.2 | 3.4
> Cc1cc(Br)c(NC(=O)CSc2n[nH]c(N)n2)c(Br)c1
→ 1.9 | x | x | x | x | 0.662 | i | -1.9 | x
> COc1ccc(NC(=O)CCN2CCN(S(=O)(=O)c3cc(Cl)ccc3OC)CC2)cc1
→ 0.2 | -4.4 | x | 3.1% | x | 0.723 | x | x | x
> CC(=O)c1cccc(NC(=O)COC(=O)c2ccc(S(C)(=O)=O)c([N+](=O)[O-])c2)c1
→ 0.5 | -2.9 | 30.2 | 8.8% | -0.9 | 0.669 | i | u | 27.5
> O=c1c2ccccc2c(C=NC2CCN(Cc3ccccc3)CC2)c(O)n1Cc1ccc2c(c1)OCO2
→ x | -5.0 | 9.3 | -15.0% | -0.8 | 0.694 | i | 10.1 | 6.7
> COc1cc(C(=O)OC(C)CN2CCCC2)cc(OC)c1OC (configuration not stated)
→ 5.2 | 0.8 | x | 1.6% | x | 0.699 | x | x | x
> C[C@H](CO)N1C[C@H](C)[C@H](CN(C)C(=O)Nc2ccc(F)cc2)Oc2c(NC(=O)Nc3ccc(C(F)(F)F)cc3)cccc2C1=O
→ x | x | 7.0 | x | 4.0 | x | i | 3.7 | 0.8
> COc1ccc(NC(=O)CNC(=O)c2ccco2)cc1S(=O)(=O)Nc1cc(C)ccc1Br
→ 3.4 | 0.2 | -50.8 | 3.4% | -1.8 | 0.709 | i | -0.3 | -11.6
> CCOc1ccc(N2C(=O)CC(Sc3ncccn3)C2=O)cc1 (configuration not stated)
→ -1.5 | -1.1 | x | -1.1% | x | 0.77 | x | x | x
> CC(=O)Nc1ccc(Nc2ncnc3c2nnn3Cc2ccccc2Cl)cc1
→ -6.8 | x | 4.5 | x | -0.3 | 0.654 | i | -1.0 | 0.6
> O=C(O)CCNc1nc(-c2ccccc2)nc2ccccc12
→ -2.6 | -1.4 | x | -3.8% | x | 0.733 | x | x | x
> CCC(CC)C(=O)N(C)c1c(C)nc2c(OCC(=O)N(C)C)cccn12
→ 1.1 | x | 35.9 | x | 0.8 | x | i | -0.1 | 13.0
> COc1ccc(S(=O)(=O)Nc2ccc3c(c2)C(=O)N([C@H](C)CO)C[C@@H](C)[C@H](CN(C)C(=O)Nc2ccc(C(F)(F)F)cc2)O3)cc1
→ x | x | -10.0 | x | -0.7 | x | i | -2.2 | -7.4
> COc1ccccc1-n1c(SCC(N)=O)nc2sc3c(c2c1=O)CCC3
→ 0.1 | -7.6 | -4.6 | u | 4.7 | 0.685 | i | -14.4 | -4.5
> OC(CNCC1CCCO1)COc1ccc(OCC(O)CNCC2CCCO2)cc1 (configuration not stated)
→ -2.3 | -0.7 | x | -10.8% | x | 0.741 | x | x | x
> Cc1ccccc1NC(=S)NCc1ccc2c(c1)OCO2
→ 1.4 | 0.2 | x | 3.6% | x | 0.701 | x | x | x
> O=C(NCC(=O)N1CCN(c2ncccn2)CC1)c1ccc(F)cc1
→ -4.9 | -11.5 | 13.8 | 1.4% | -2.5 | 0.668 | i | 6.9 | 3.2
> CCOC(=O)c1c(NC(=O)c2cccs2)sc2c1CC(C)(C)OC2
→ -3.5 | 0.6 | x | 13.0% | x | 0.707 | x | x | x
> COCc1cn(CC[C@H]2CC[C@H](NC(=O)Nc3c(C)noc3C)[C@@H](CO)O2)nn1
→ x | x | 3.9 | x | 0.1 | x | i | 1.1 | 1.5
> O=C(Cc1c(O)c2ccccc2[nH]c1=O)OC1CCCCC1
→ -4.4 | 43.1 | x | u | x | 0.711 | x | x | x
> COc1ccc(OC)c(C(=O)C(=O)c2cc(OC)ccc2OC)c1
→ 4.5 | x | 4.4 | -2.5% | 4.8 | 0.69 | i | -1.3 | -7.9
> Cc1ccc(-c2nc(CS(=O)(=O)CC(=O)NCc3ccc4c(c3)OCO4)c(C)o2)cc1
→ 0.7 | -0.8 | 6.2 | x | 1.5 | 0.716 | i | -2.4 | 7.6
> Cc1ccc(F)c(CNC(=O)C2CCC(=O)N(CCN3CCOCC3)C2)c1F (configuration not stated)
→ -3.1 | 2.1 | 12.8 | x | 0.3 | 0.65 | i | 0.2 | 13.0
> O=C(Nc1nccs1)NC(C(F)(F)F)C(F)(F)F
→ 0.4 | 1.1 | x | -3.2% | x | 0.639 | x | x | x
> CCCNC(=O)c1ccc(Cn2c(=S)[nH]c3c([nH]c4ccc(OC)cc43)c2=O)cc1
→ -3.5 | -0.2 | x | x | x | 0.654 | x | x | x
> CCN1CCn2c3c(c4cccc(C)c42)CCCC31 (configuration not stated)
→ -1.7 | x | -12.4 | x | -0.1 | 0.629 | i | 10.4 | -11.4
> CCN(CC)C(=O)c1cnn(-c2ccccc2)c1NC(=O)c1ccccc1F
→ -4.0 | x | -6.9 | -3.7% | 7.4 | 0.744 | i | -1.8 | 1.4
> CNC[C@@H]1Oc2cc(-c3ccccc3F)ccc2S(=O)(=O)N([C@@H](C)CO)C[C@H]1C
→ x | x | 4.8 | x | 1.9 | x | i | 1.1 | 6.7
> CC(C)=CCN1CCN(Cc2ccc(Sc3nncn3C)o2)CC1CCO (configuration not stated)
→ -0.8 | -13.7 | 8.8 | 3.0% | -2.5 | 0.736 | i | -0.8 | 8.1
> Cn1cc(C(=O)c2ccc(F)cc2)cc1-c1nc2ccccc2n1C
→ -0.3 | 1.7 | x | 11.5% | x | 0.686 | x | x | x

Compound activity from PubChem.

Not all compounds are listed; count on the stated rates, not on these rows.
